RN4220 kill = growth inhibition of S. aureus RN4220, primary screen, OD600; 16 h; inhibition, % (test concentration not listed); actives 0.33% (n = 330,000); AID 1259311, 2017;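 active = z-score of -3 or lower and OD600 up to 0.18 on both plates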;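 note: plate controls were untreated cells for no effect and reference antibiotic for full effect; stock transfer was 100 nL into about 80 µL; one replicate is shown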
Bead autofluor = flagged as autofluorescent in microsphere protease counterscreen | actives 3.1% (n = 360,000) | fluorescence intensity (concentration not given with the values) | compound autofluorescence counterscreen, microsphere flow cytometry; active compounds read high;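 active = at least 3 SD above the mean of all compounds, about 16000 in these data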;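 note: 100 nL of 1 mM stock went into each well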
Sa ugtP lethal = growth inhibition of ugtP-null S. aureus, primary screen, RN4220 ugtP deletion, OD600; AID 1259309, 2017; actives 0.54% (n = 330,000); 16 h; some inactives read as strong as hits; growth inhibition, % (test concentration not listed);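 active = z-score under -3 and OD600 up to 0.15 on both plates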;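 note: plate controls were untreated wells for no effect and antibiotic for full effect; wells of about 80 µL received 100 nL stock; the first replicate is given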
PrP 5UTR inh = inhibition of PrP 5' UTR reporter expression; cell-based PrP 5' UTR mRNA reporter, plate reader; inhibition, % (concentration not given with the values); actives 0.35% (n = 340,000);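 active = every replicate at 50% or more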;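 note: 0 = median of the neutral control wells; tested in H4 reporter cells; numbers are from one replicate; inactives centre near -14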
Starred values were filed as active, the others as inactive; . = no result given.

SMILES	RN4220 kill	Bead autofluor	Sa ugtP lethal	PrP 5UTR inh
COc1ccc(S(=O)(=O)N(C)C[C@H]2Oc3c(NC(=O)Nc4ccc5c(c4)OCO5)cccc3C(=O)N([C@H](C)CO)C[C@@H]2C)cc1	.	3673	.	1
COc1ccc(OC)c(/C=N/NC(=O)C(=O)NCc2cccnc2)c1	.	3343	.	5
COc1ccccc1N1CCN(C(=O)C2CCCN(S(=O)(=O)c3ccc(C)cc3)C2)CC1 (stereo unspecified)	.	4112	.	-9
Oc1c(Br)cc(Br)cc1/C=N/c1nccs1	.	8416	.	-7
Cc1ccc(S(=O)(=O)N2[C@@H](c3ccc(Cl)cc3)C(C(=O)O)=CC[C@H]2c2ccc(Cl)c(Cl)c2)cc1	.	3480	.	-19
Nc1ccc(Cn2ccc3c4c(N)nc(N)nc4ccc32)cc1	.	3145	.	62*
CCSC(=O)N=Nc1ccc(O)cc1	.	4153	.	56*
C[C@]12CCC[C@H](O1)[C@H]([C@@H](O)c1ccccc1)O2	.	3091	.	-22
COc1ccc(NC(=O)Nc2ccc3c(c2)CC(=O)N([C@H](C)CO)C[C@@H](C)[C@H](CN(C)C(=O)Nc2ccccc2)O3)cc1	.	2978	.	-15
C[C@H](NC(=O)c1nc[nH]c1C(=O)N[C@@H](C)c1ccccc1)c1ccccc1	.	4384	.	-5
O=C1OC[C@H]2CCCN2C(=O)[C@@H](CC(=O)N(CCO)Cc2ccccc2)C/C=C\C[C@@H]1Cc1ccc(F)cc1	.	3907	.	-9
COc1ccc2sc(-c3ccc(N(C)C)cc3)c(-c3ccc4cc[nH]c4c3)c2c1	.	3927	.	-45

Compound profiles (already shown):
`COc1ccccc1N1CCN(C(=O)C2CCCN(S(=O)(=O)c3ccc(C)cc3)C2)CC1` (stereo unspecified) is listed with RN4220 kill = .; Bead autofluor = 4112; Sa ugtP lethal = .; PrP 5UTR inh = -9
`COc1ccc(NC(=O)Nc2ccc3c(c2)CC(=O)N([C@H](C)CO)C[C@@H](C)[C@H](CN(C)C(=O)Nc2ccccc2)O3)cc1` is listed with RN4220 kill = .; Bead autofluor = 2978; Sa ugtP lethal = .; PrP 5UTR inh = -15
`COc1ccc(S(=O)(=O)N(C)C[C@H]2Oc3c(NC(=O)Nc4ccc5c(c4)OCO5)cccc3C(=O)N([C@H](C)CO)C[C@@H]2C)cc1` is listed with RN4220 kill = .; Bead autofluor = 3673; Sa ugtP lethal = .; PrP 5UTR inh = 1

(continued)
SMILES	RN4220 kill	Bead autofluor	Sa ugtP lethal	PrP 5UTR inh
O=C(N/N=C/c1ccc(O)c(O)c1)c1ccc(-n2cnnn2)cc1	.	4072	.	-4
CC(C)C[C@@H](CNCC(=O)[C@H](CC(C)C)NC(=O)c1[nH]cnc1C(=O)N[C@@H](C)CN)NC(=O)c1nc[nH]c1C(=O)N[C@@H](CC(=O)O)C(=O)O	.	4030	.	-8
COc1cc(/C=N/NC(=O)c2ccc(NS(=O)(=O)c3cccs3)cc2)cc(OC)c1O	.	6322	.	-24
C#CCOCCOCCOCCNc1nc(N2CCN(C(=O)Cn3cc(CCO)nn3)CC2)nc(N2CCN(C(=O)[C@H](Cc3ccc(O)cc3)n3cc(CCO)nn3)CC2)n1	.	3802	.	-15
N#CC(C#N)=C1CCCc2sccc21	.	4121	.	-14
CCOc1ccc([C@@H]2CC=C(C(=O)O)CN2S(=O)(=O)c2ccc(C)cc2)cc1	.	3839	.	-7
CCC(/C=N/NC(=O)c1ccccc1F)CC	.	4623	.	4
CC(=O)N1C2=CCCC3CCCCC23c2ccccc21 (stereo unspecified)	.	12500	.	-17
COC(=O)C1=C(c2ccc(OC(F)(F)F)cc2)C[C@@H]2CC[C@H]1N2C(=O)NCCc1ccccc1	.	4174	.	-18
COC(=O)C1=C(c2ccc(F)cc2OCc2ccccc2)C[C@@H]2CC[C@H]1N2C(=O)NC1CCN(Cc2ccccc2)CC1	.	4034	.	2
Cc1ccc(S(=O)(=O)/N=C2\C=C(NS(=O)(=O)c3ccccc3)C(=O)c3ccccc32)cc1	.	2853	.	1
CC(C)NC(=O)N(C)C[C@H]1Oc2c(NC(=O)c3ccc(-c4nccs4)cc3)cccc2C(=O)N([C@@H](C)CO)C[C@H]1C	.	3455	.	-26
C[C@H](O)[C@@H]1C(=O)N2CCc3ccc(N4CCOCC4)cc3[C@@H]2C[C@@H]1N(C)C(=O)Nc1ccccc1	.	3850	.	-19
CCC(C)Sc1ccc([C@H]2N[C@@](C)(C(=O)OC)[C@H]3C(=O)N(C)C(=O)[C@@H]23)cc1 (stereo partly specified)	.	4268	.	-25
CCOC(=O)[C@H]1[C@H]2COc3cc(OC)ccc3[C@@H]2N2C(=O)c3cc(F)ccc3NC(=O)[C@@]12C	.	3931	.	-12
Cn1c2c(c3ccccc31)CCN(CCCCN1CCN(c3ccccc3)CC1)C2=O	.	2884	.	-1
COc1ccc(-c2coc3cc(OC)ccc3c2=O)cc1	.	4211	.	-19
O=c1[nH]c2ccccc2c2ccc(Cl)cc12	.	3735	.	-1
COc1ccc([C@H]2CC(=O)C=C(c3ccc(C(F)(F)F)c(C(F)(F)F)c3)C2)cc1OC	.	3910	.	-12
C=CCOC(=O)N1CCC2CC1c1cc(-c3ccc(OC)cc3)ccc12 (stereo unspecified)	.	4015	.	-16
COc1ccc(N2CCN(C(=O)COC(=O)[C@@H](NC(=O)c3c(F)cccc3F)C(C)C)CC2)cc1	.	3571	.	-12
COc1ccc([C@H]2CC(=O)C=C(c3cccc(C(C)C)c3)C2)cc1OC	.	3869	.	-13
C[C@@H](NC(=O)c1ncn(Cc2ccccc2)c1C(=O)N[C@H](C)c1ccccc1)c1ccccc1	.	4030	.	-24
COC(=O)[C@@]12CCCN1[C@H](c1ccc(SC3CCCCC3)cc1)[C@H]1C(=O)N(C)C(=O)[C@H]12	.	4947	.	-63
O=C(C[C@H]1C/C=C\C[C@@H](Cc2ccc(F)cc2)C(=O)OC[C@H]2CCCN2C1=O)N[C@H](CO)Cc1ccccc1	.	3484	.	-26
Nc1ccn(CC(=O)N[C@H](CO)Cc2c[nH]c3ccccc23)c(=O)n1	.	3737	.	0
COc1ccc(C(CC(=O)O)c2cc(OC)c(OC)c(OC)c2)cc1OC (stereo unspecified)	.	4110	.	-23
O=C1CC/C=C\C[C@@H](CC(=O)N(CCO)Cc2ccccc2)C(=O)NC[C@@H](c2ccccc2)O1	.	3483	.	-19
C=C(C(=O)c1ccccc1)C(NC(C)(C)C)c1ccccc1 (stereo unspecified)	.	3775	.	-35
CN(C)c1ccc(NC(=O)COC(=O)c2ccc3c(c2)OCO3)cc1	.	3712	.	-20
O=C1[C@H](Cc2ccccc2)NCC=CC[C@@H](c2ccco2)N1Cc1ccccc1	.	4206	.	-60
CC(C)(C)NC[C@H](O)COc1cccc2c1CCCC2=O	.	5868	.	-11
Cc1ccc(S(=O)(=O)N2CCSCCSCCSCCSCC2)cc1	.	3916	.	41
Nc1cccc(-c2c[nH]c3ncc(-c4cccnc4)cc23)c1	.	3966	.	4
CCCCCCSc1cc(-c2nc3ccc(C)cn3c2NCCCC)ccc1OC	.	2888	.	-9
O=C(/C=C/c1ccccc1)Nc1cccc(C(=O)NC2CC2)c1	.	3864	.	-77
CC(=NNC(=S)Nc1ccccc1Cl)c1ccccn1	.	2998	.	27
Cc1ccccc1C=c1sc(=CC(=O)C(C)(C)C)[nH]c1=O	2.3	.	-7	.
Cn1cccc1C=Nn1c(-c2ccc(Cl)cc2Cl)n[nH]c1=S	2.0	.	7	.
O=C(NN=Cc1ccc(CN(Cc2ccc(Cl)cc2)S(=O)(=O)c2ccccc2)o1)C(=O)Nc1ccc(F)cc1	-0.7	.	-7	.
CCn1cc(C=NO)c(C)n1	0.8	.	5	.
C/C(C=NNC(=O)c1cnccn1)=C/c1ccccc1	-1.2	.	6	.
FCCCOc1ccc(C=NOCc2c(Cl)cccc2Cl)cc1	2.4	.	64	.
CCn1c2ccccc2c2cc(C(C)=NO)ccc21	15	.	-11	.
CC(=NNC(=O)C(NC(=O)c1ccccc1)C(C)C)c1ccccc1 (stereo unspecified)	1.1	.	-2	.
C[C@@H]1C[C@@H]2O[C@H]2C=CC=CC(=O)Cc2c(Cl)c(O)cc(O)c2C(=O)O1	12	.	10	.
Oc1ccc(C=NNC2=NCCCCC2)c(O)c1	-1.0	.	0	.
CC(=NNC(=O)c1cccs1)c1ccc(NC(=O)COc2ccc(Cl)cc2Cl)cc1	2.6	.	0	.
O=C(NN=Cc1cccc([N+](=O)[O-])c1)c1ccc2nc[nH]c2c1	1.3	.	1	.
CC(=NNC(=O)c1ccc(NC(=O)c2ccc(F)cc2)cc1)c1ccccc1	-0.6	.	-1	.
COc1cccc(C=NNC(=O)c2nc(-c3ccccc3)cc(-c3ccccc3)n2)c1	-6.4	.	-23	.
COc1ccccc1C=NNc1cc(C)nc(-n2nc(C)cc2C)n1	10	.	-6	.
CC(=O)c1ccc(N2C(=O)C3C(C2=O)C(C(=O)c2ccc(Cl)cc2)N2CCCC32)cc1 (stereo unspecified)	7.1	.	10	.
FC(F)(F)c1nc2ccccc2nc1NN=Cc1ccccc1	1.6	.	-2	.
Cc1ccc(S(=O)(=O)N=Cc2ccco2)cc1	-1.7	.	4	.
COc1ccc(C2C(=C(O)c3ccccc3)C(=O)C(=O)N2C)cc1 (stereo unspecified)	5.3	.	3	.
COc1cc(C=Nn2nnnc2N)ccc1OCc1ccc(F)cc1	0.3	.	-5	.
O=C(NN=Cc1cn(-c2ccccc2)nc1-c1ccccc1)c1ccc(Br)o1	-4.3	.	2	.
C=CCN1C(=O)C(Cc2ccc(OCC)cc2)SC1=NN=Cc1cccs1 (stereo unspecified)	-4.5	.	2	.
CON=C(Cn1ncc(NC2CCCCC2)c(Br)c1=O)c1ccc(Cl)cc1	-1.3	.	29	.

Pulled one by one from the list above (6):
SMILES	RN4220 kill	Bead autofluor	Sa ugtP lethal	PrP 5UTR inh
CC(=O)c1ccc(N2C(=O)C3C(C2=O)C(C(=O)c2ccc(Cl)cc2)N2CCCC32)cc1 (stereo unspecified)	7.1	.	10	.
COc1cccc(C=NNC(=O)c2nc(-c3ccccc3)cc(-c3ccccc3)n2)c1	-6.4	.	-23	.
C=CCN1C(=O)C(Cc2ccc(OCC)cc2)SC1=NN=Cc1cccs1 (stereo unspecified)	-4.5	.	2	.
Cc1ccc(S(=O)(=O)N=Cc2ccco2)cc1	-1.7	.	4	.
COc1ccc(C2C(=C(O)c3ccccc3)C(=O)C(=O)N2C)cc1 (stereo unspecified)	5.3	.	3	.
COc1ccccc1C=NNc1cc(C)nc(-n2nc(C)cc2C)n1	10	.	-6	.

Going on with the list:
SMILES	RN4220 kill	Bead autofluor	Sa ugtP lethal	PrP 5UTR inh
O=C(NN=Cc1ccccc1)c1sccc1-n1cccc1	3.4	.	-5	.
O=C(NN=Cc1ccc(F)c(F)c1)c1cc2c(s1)-c1ccccc1CC2	-11	.	-15	.
O=C(COc1ccc(C=NNC(=O)c2ccccc2)cc1)Nc1ccc([N+](=O)[O-])cc1	1.3	.	0	.
COc1ccc(C(=O)Oc2cc(C=NNS(=O)(=O)c3ccc(C)cc3)ccc2OC)cc1	9.6	.	1	.
Cc1[nH]n(-c2cccc3ccccc23)c(=O)c1C=Nc1sc2c(c1C#N)CCC2	-1.2	.	4	.
Cc1nn(-c2ccccc2)c(Cl)c1C=NNC(=O)c1ccc(CNc2ccccc2)o1	2.6	.	-1	.
CCOc1cc(C=NNC(=O)Cn2nc([N+](=O)[O-])cc2C)ccc1OCc1cccc2ccccc12	-6.6	.	-11	.
COc1ccc(S(=O)(=O)N(CC(=O)NN=Cc2cccs2)c2ccc(C)cc2)cc1OC	-0.3	.	2	.
N#CC(=C(O)COC(=O)CCc1ccc(S(=O)(=O)N2CCOCC2)cc1)c1nc2ccccc2[nH]1	-0.1	.	-10	.
Br/C(C=NN1CCN(c2ccccn2)CC1)=C\c1ccccc1	-3.5	.	13	.
C/C(C=NN1CCN(c2ccc(Cl)cc2)CC1)=C\c1ccccc1	6.0	.	0	.
CN(C)c1ccc(C=c2sc3n(c2=O)CCCN=3)cc1	1.4	.	-2	.
CCSc1nncn1N=Cc1ccc(OC)c(OC)c1	-2.3	.	-8	.

Assay outcomes as filed in PubChem.

Some of the compounds tested; the hit share may differ from the screen's.
